Bioassay records deposited in PubChem BioAssay by Broad Institute.
Yeast UUG start: modulators of start codon recognition fidelity in yeast. activity score, % at 18.7 µM. S. cerevisiae UUG-firefly luciferase reporter, luminescence/redox ratio. 0.13% of 350,000 active. AID 602363;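 active = replicate mean at a twofold rise or more, about +100% in these data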;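 also: firefly luciferase made from a UUG start codon reports start codon fidelity; reporter light over untreated wells divided by growth signal over untreated wells; some hits fall short of that in this replicate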
Env fusion inh: blocks HIV Env-driven cell-cell fusion; HeLa-JRFL Env/CEM21 cell fusion, luciferase; inhibition, % at 12.3 µM; 1.1% of 360,000 active; AID 651610;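 active = mean replicate inhibition score of at least 50 and every replicate individually at or above 50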;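 also: 0% = plate neutral controls and 100% = maraviroc near 300 nM; one replicate is shown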
Starred values were filed as active, the others as inactive; [ ] = dose if it differs, or a comment. A portion of the library (hit frequency here may not be typical).

Value order – Yeast UUG start	Env fusion inh
Cc1noc(C)c1S(=O)(=O)N(C)C[C@H]1Oc2ccc(NS(=O)(=O)c3ccccc3)cc2CC(=O)N([C@H](C)CO)C[C@H]1C
→ -6	-5[16.7 µM]
CC(=O)N(C)C[C@@H]1Oc2cc(-c3ccccc3)ccc2S(=O)(=O)N([C@@H](C)CO)C[C@H]1C
→ -5	3[16.7 µM]
C[C@H](CO)N1C[C@H](C)[C@@H](CN(C)S(=O)(=O)c2ccc(F)cc2)Oc2ccc(NC(=O)Nc3cccc4ccccc34)cc2CC1=O
→ -11	20[16.7 µM]
COCC(=O)Nc1ccc2c(c1)C(=O)N(C)[C@@H]1CC[C@@H](CC(=O)NCc3ccccc3)O[C@H]1CO2
→ -8	5[16.7 µM]
CCS(=O)(=O)Nc1ccc2c(c1)C(=O)N(C)[C@H]1CC[C@@H](CC(=O)NC3CCCCC3)O[C@H]1CO2
→ 18	9[16.7 µM]
CN(C)C(=O)C[C@H]1C[C@H]2c3cc(NC(=O)NC4CCCC4)ccc3O[C@H]2[C@@H](CO)O1
→ 8	-10[16.7 µM]
COc1ccc(NC(=O)Nc2ccc3c(c2)C(=O)N([C@H](C)CO)C[C@H](C)[C@H](CN(C)S(=O)(=O)c2ccc(F)cc2)OCCCC[C@@H](C)O3)cc1
→ -16	4[16.7 µM]
C[C@@H]1CCCCO[C@@H](CN(C)C(=O)Nc2ccccc2)[C@H](C)CN([C@@H](C)CO)C(=O)c2cc(NC(=O)c3ccncc3)ccc2O1
→ 17	12[16.7 µM]
O=C(C[C@H]1C[C@@H]2c3cc(NC(=O)CC4CC4)ccc3O[C@@H]2[C@@H](CO)O1)NCc1ccc(-c2ccccc2)cc1
→ 11	26[16.7 µM]
CC(C)NC(=O)Nc1ccc2c(c1)C(=O)N([C@@H](C)CO)C[C@H](C)[C@@H](CN(C)Cc1ccc(C(F)(F)F)cc1)OCCCC[C@H](C)O2
→ 11	-11[16.7 µM]
CCCNC(=O)N(C)C[C@H]1Oc2ncc(C#Cc3ccccc3F)cc2C(=O)N([C@H](C)CO)C[C@H]1C
→ 4	3[16.7 µM]
C[C@H](CO)N1C[C@H](C)[C@@H](CN(C)C(=O)NC2CCCC2)Oc2cc(C#Cc3ccc(F)cc3)ccc2S1(=O)=O
→ 11	13[16.7 µM]
COc1ccc(S(=O)(=O)Nc2ccc3c(c2)C(=O)N([C@@H](C)CO)C[C@H](C)[C@@H](CN(C)S(=O)(=O)c2ccc(C)cc2)O3)cc1
→ -18	9[16.7 µM]
C[C@H]1CN([C@@H](C)CO)C(=O)c2cccc(NC(=O)C3CCCCC3)c2O[C@H]1CN(C)S(C)(=O)=O
→ 6	62*[16.7 µM]
COc1ccc(CN(C)C[C@H]2Oc3ccc(NC(=O)C4CCCCC4)cc3C(=O)N([C@@H](C)CO)C[C@H]2C)cc1
→ 7	-15[16.7 µM]
CCC(=O)N(C)C[C@H]1Oc2ncc(C#CC(C)C)cc2C(=O)N([C@H](C)CO)C[C@@H]1C
→ 4	-11[16.7 µM]
COc1ccc(NC(=O)N(C)C[C@@H]2Oc3ccc(NC(=O)Nc4cccc5ccccc45)cc3C(=O)N([C@H](C)CO)C[C@@H]2C)cc1
→ -6	-14[16.7 µM]
CCCNC(=O)N(C)C[C@H]1Oc2ncc(C#CC3CCCCC3)cc2C(=O)N([C@@H](C)CO)C[C@@H]1C
→ 38	5[16.7 µM]
C[C@H]1CN([C@@H](C)CO)C(=O)c2cccc(NS(=O)(=O)c3ccc(Cl)cc3)c2O[C@@H]1CN(C)CC1CC1
→ 4	-20[16.7 µM]
C[C@@H]1CN([C@@H](C)CO)C(=O)c2cc(NC(=O)c3ccncc3)ccc2O[C@@H]1CN(C)C(=O)Nc1ccc(C(F)(F)F)cc1
→ -2	-4[16.7 µM]
O=C(C[C@H]1C=C[C@H](NC(=O)Nc2ccc(C(F)(F)F)cc2)[C@H](CO)O1)NCc1cccc(F)c1
→ 1	-13[16.7 µM]
C[C@@H]1CN([C@H](C)CO)S(=O)(=O)c2ccc(-c3cccc(C#N)c3)cc2O[C@@H]1CN(C)C(=O)c1ccc(F)cc1
→ -6	8[16.7 µM]
C[C@@H]1CCCCO[C@@H](CN(C)Cc2ccc(Cl)c(Cl)c2)[C@@H](C)CN([C@H](C)CO)C(=O)c2cc(NS(=O)(=O)c3ccccc3)ccc2O1
→ -8	-2[16.7 µM]
COc1cccc(N2CCN(C(=O)C3CCN(C(=O)Nc4ccccc4)CC3)CC2)c1
→ 0	-8
C[C@H]1CN([C@@H](C)CO)C(=O)c2cc(C#CC3(O)CCCC3)cnc2O[C@H]1CN(C)Cc1ccccc1
→ 1	3[16.7 µM]
C[C@@H]1CN([C@H](C)CO)C(=O)Cc2cc(NC(=O)Nc3cccc4ccccc34)ccc2O[C@H]1CN(C)C(=O)Nc1ccc2c(c1)OCO2
→ -11	-2[16.7 µM]
Cc1ccc(S(=O)(=O)N(C)C[C@H]2OCCCC[C@@H](C)Oc3ccc(NC(=O)Nc4ccccc4)cc3C(=O)N([C@@H](C)CO)C[C@H]2C)cc1
→ -14	-32[16.7 µM]
C/C=C/c1ccc2c(c1)O[C@H](CN(C)Cc1cccnc1)[C@@H](C)CN([C@@H](C)CO)S2(=O)=O
→ -2	-1[16.7 µM]
O=C(CCN1CCCCC1)NCC[C@H]1CC[C@H](NC(=O)C2CCCC2)[C@@H](CO)O1
→ -2	4[16.7 µM]
C[C@H]1CN([C@@H](C)CO)C(=O)Cc2cc(NS(=O)(=O)c3cccs3)ccc2O[C@H]1CN(C)C(=O)Nc1cccc2ccccc12
→ -6	6[16.7 µM]
Cc1noc(C)c1NC(=O)N(C)C[C@H]1OCCCC[C@@H](C)Oc2ccc(NS(C)(=O)=O)cc2C(=O)N([C@@H](C)CO)C[C@H]1C
→ -7	-7[16.7 µM]
C[C@@H]1CN([C@H](C)CO)C(=O)c2cc(NS(=O)(=O)c3cn(C)cn3)ccc2O[C@@H](C)CCCCO[C@H]1CN(C)S(=O)(=O)c1ccc(Cl)cc1
→ -5	-15[16.7 µM]
C[C@H]1CN([C@@H](C)CO)C(=O)c2cc(C#CCN(C)C)cnc2O[C@@H]1CN(C)C
→ 16	-4[16.7 µM]
CO[C@H]1CN(C)C(=O)c2cc(NS(=O)(=O)c3cn(C)cn3)ccc2OC[C@H](C)NC[C@@H]1C
→ -8	2[16.7 µM]
C[C@H]1CN([C@@H](C)CO)S(=O)(=O)c2ccc(/C=C/c3ccccc3)cc2O[C@@H]1CN(C)C(=O)C1CC1
→ 0	1[16.7 µM]
COc1ccc(NC(=O)Nc2ccc3c(c2)CC(=O)N([C@H](C)CO)C[C@H](C)[C@@H](CN(C)C(=O)Nc2ccc4c(c2)OCO4)O3)cc1
→ 1	-5[16.7 µM]
Cc1cc(C(=O)Nc2cccc3c2O[C@@H](CN(C)C(=O)Nc2cccc4ccccc24)[C@H](C)CN([C@@H](C)CO)C3=O)n(C)n1
→ -9	3[16.7 µM]
O=C(C[C@H]1C=C[C@@H](NC(=O)C2CCOCC2)[C@H](CO)O1)NCC1CC1
→ -19	-4[16.7 µM]
C[C@@H]1CCCCO[C@@H](CN(C)C(=O)Nc2cccc3ccccc23)[C@H](C)CN([C@H](C)CO)C(=O)c2cc(NC(=O)Nc3ccc(C(F)(F)F)cc3)ccc2O1
→ -6	37[16.7 µM]
CNC(=O)C[C@H]1CC[C@H]2[C@@H](COc3ccc(NC(=O)Nc4ccc(C)cc4)cc3C(=O)N2C)O1
→ -13	11[16.7 µM]
C[C@H]1CN([C@@H](C)CO)C(=O)c2cccc(NC(=O)C3CCOCC3)c2O[C@H]1CN(C)C(=O)Nc1cccc2ccccc12
→ 16	-2[16.7 µM]
C[C@@H]1CN([C@@H](C)CO)C(=O)c2cc(NS(=O)(=O)c3ccccc3)ccc2O[C@@H](C)CCCCO[C@@H]1CN(C)S(=O)(=O)c1cccs1
→ -9	-30[16.7 µM]
CCC(=O)N(C)C[C@@H]1Oc2cc(-c3ccc(C)cc3)ccc2S(=O)(=O)N([C@@H](C)CO)C[C@@H]1C
→ 7	14[16.7 µM]
CO[C@H]1CN(C)C(=O)c2cc(NC(=O)NC(C)C)ccc2OC[C@H](C)N(C(=O)CC2CC2)C[C@H]1C
→ -1	-7[16.7 µM]
C[C@H](CO)N1C[C@H](C)[C@H](CN(C)C(=O)CN2CCOCC2)Oc2ncc(/C=C/c3ccccc3)cc2C1=O
→ 4	-4[16.7 µM]
Cc1ccc(S(=O)(=O)Nc2ccc3c(c2)C(=O)N([C@H](C)CO)C[C@H](C)[C@@H](CN(C)S(=O)(=O)c2ccc(C)cc2)OCCCC[C@H](C)O3)cc1
→ -11	-84[16.7 µM]
C[C@@H]1CN([C@H](C)CO)C(=O)c2cccc(NC(=O)C3CCOCC3)c2O[C@H]1CN(C)Cc1ccccc1
→ -9	47[16.7 µM]
CCNC(=O)C[C@@H]1CC[C@H]2[C@@H](COc3ccc(NC(=O)c4cccc(OC)c4)cc3C(=O)N2C)O1
→ 13	11[16.7 µM]
C[C@H]1CCCCO[C@@H](CN(C)C(=O)Nc2ccccc2)[C@@H](C)CN([C@@H](C)CO)C(=O)c2cc(NC(=O)Nc3ccc4c(c3)OCO4)ccc2O1
→ 6	-6[16.7 µM]
O=C(C[C@H]1CC[C@@H](NC(=O)Nc2cc(F)ccc2F)[C@@H](CO)O1)NCc1ccncn1
→ -13	-25[16.7 µM]
COc1ccccc1S(=O)(=O)N[C@H]1CC[C@H](CCn2cc(C3CC3)nn2)O[C@H]1CO
→ 15	15[16.7 µM]
C[C@H]1CN([C@@H](C)CO)C(=O)Cc2cc(NS(=O)(=O)c3ccc(F)cc3)ccc2O[C@H]1CN(C)Cc1ccccc1
→ -12	-5[16.7 µM]
C[C@H]1CN([C@@H](C)CO)C(=O)Cc2cc(NS(=O)(=O)c3cn(C)cn3)ccc2O[C@H]1CN(C)C(=O)Nc1ccc(F)cc1
→ -8	-53[16.7 µM]
COCC#Cc1ccc2c(c1)O[C@@H](CN(C)C(=O)c1ccccc1)[C@@H](C)CN([C@H](C)CO)S2(=O)=O
→ 4	2[16.7 µM]
C[C@H](CO)N1C[C@H](C)[C@@H](CN(C)C(=O)C2CC2)Oc2cc(-c3ccc(F)cc3)ccc2S1(=O)=O
→ 27	8[16.7 µM]
Cc1ccc(S(=O)(=O)N[C@@H]2CC[C@@H](CCNC(=O)C3CCCC3)O[C@@H]2CO)cc1
→ -11	12[16.7 µM]
C[C@@H]1CN([C@@H](C)CO)C(=O)CCCn2cc(nn2)CO[C@@H]1CN(C)Cc1ccc2c(c1)OCCO2
→ -5	0[16.7 µM]
C[C@@H]1CN([C@H](C)CO)C(=O)c2cc(/C=C/c3ccccc3)cnc2O[C@@H]1CN(C)Cc1ccccc1
→ -8	0[16.7 µM]
COc1ccc(NC(=O)Nc2ccc3c(c2)C(=O)N([C@H](C)CO)C[C@H](C)[C@@H](CN(C)S(=O)(=O)c2ccc(F)cc2)OCCCC[C@H](C)O3)cc1
→ -7	-4[16.7 µM]
C[C@H](CO)N1C[C@H](C)[C@H](CN(C)C(=O)Nc2ccc(C(F)(F)F)cc2)Oc2c(NC(=O)Nc3cccc4ccccc34)cccc2C1=O
→ -2	9[16.7 µM]

Next compounds follow.
Value order – Yeast UUG start	Env fusion inh
Cc1ccc(S(=O)(=O)NCC[C@@H]2CC[C@H](NC(=O)c3cnccn3)[C@@H](CO)O2)cc1
→ 0	4[16.7 µM]
C[C@@H]1CN([C@H](C)CO)C(=O)c2cc(N(C)C)ccc2O[C@@H](C)CCCCO[C@@H]1CN(C)C(=O)c1ccncc1
→ -3	-3[16.7 µM]
C[C@@H]1CN([C@@H](C)CO)C(=O)c2cc(/C=C/c3ccccc3)cnc2O[C@@H]1CN(C)C(=O)c1ccc(F)cc1
→ 12	-28[16.7 µM]
COc1ccc(CNC(=O)C[C@H]2C=C[C@H](NC(=O)CN(C)C)[C@H](CO)O2)cc1
→ -20	-3[16.7 µM]
CCNC(=O)C[C@H]1CC[C@@H](NS(=O)(=O)c2ccc(C)cc2)[C@@H](CO)O1
→ 11	13[16.7 µM]
C[C@H]1CN([C@@H](C)CO)C(=O)Cc2cc(NS(=O)(=O)c3ccccc3)ccc2O[C@@H]1CN(C)C(=O)Nc1ccc(C(F)(F)F)cc1
→ 13	-3[16.7 µM]
CCCNC(=O)C[C@@H]1C[C@H]2c3cc(NC(=O)Nc4ccccc4)ccc3O[C@H]2[C@H](CO)O1
→ 8	-9[16.7 µM]
CC(C)NC(=O)Nc1ccc2c(c1)C(=O)N([C@H](C)CO)C[C@@H](C)[C@@H](CN(C)S(=O)(=O)c1cccs1)OCCCC[C@H](C)O2
→ 8	-3[16.7 µM]
CC(C)c1cn(CC[C@@H]2CC[C@@H](NC(=O)C3CCCC3)[C@H](CO)O2)nn1
→ 13	-11[16.7 µM]
